H5N1 antiviral: antiviral screen in MDCK cells, H5N1 avian flu. cytopathic effect, luminescence, 72 h; stronger effect = higher value; no value below 0 was filed and about half of the inactive calls have no number; reference of the scale not given here. inhibition, % at 50 µM. hit rate 0.07% among 96,000; in the data active = inhibition above about 25%
Numbers without * were called inactive; i = inactive. A portion of the library. The share of hits here may be higher or lower than overall.

cpd	SMILES	H5N1 antiviral
1	CCOc1cc(-c2c(C)c(C)nc(N)c2C#N)ccc1O	i
2	CC(C)OC(=O)CSc1nc(N)c(C#N)c(-c2ccco2)c1C#N	i
3	O=C(CN(C1CCCCC1)S(=O)(=O)c1ccc(Cl)cc1)NCc1cccnc1	i
4	CCOc1ccc2[nH]cc(C(=O)O)c(=O)c2c1	0.8
5	O=[N+]([O-])c1ccc(NC(=S)N2CCN(c3ccc(F)cc3)CC2)cc1	0.2
6	Cc1ccc(S(=O)(=O)c2cc3ccccc3oc2=Nc2ccc3c(c2)OCO3)cc1	3.3
7	CN(C)/C=C/C(=O)c1ccc(Cl)cc1	i
8	COc1cc(C2C(C#N)=C(N)Oc3cc(N(C)C)ccc32)cc2c1OCO2 (stereo unspecified)	i
9	O=C(Nc1cccnc1)c1c(F)c(F)c(F)c(F)c1F	3.9
10	CC1CCN(C(=S)c2cn(Cc3ccccc3F)c3ccccc23)CC1	0.6
11	COc1ccc(CN(Cc2ccccn2)S(=O)(=O)c2ccc(-n3cnnn3)cc2)cc1	1.5
12	COc1ccc(NC(=O)CC#N)cc1OC	i
13	Cc1cc(C)cc(NC2=NC3(CCCCC3)N=C(N)N2)c1	i
14	Cc1ccc(S(=O)(=O)N2CCC(C(=O)N3CCN(Cc4ccccc4)CC3)CC2)cc1	2.6
15	COC(=O)c1ccccc1S(=O)(=O)Nc1ccc(OC)nc1	0.9
16	Cc1[nH]c2ccccc2c1C(=O)CN1CCSCC1	1.0
17	COCCNS(=O)(=O)c1cc(OC)c(Cl)cc1Cl	0.9
18	COc1ccccc1NC(=O)CCn1cccc1	0.2
19	COc1ccc(-c2cc3nc(C)cc(N)n3n2)cc1	i
20	COc1ccc(/C=N/N=C(/N)N[N+](=O)[O-])c(OC)c1	0.8
21	CCOC(=O)C1=C(C)NC(C)=C(C(=O)OCC)C1c1ccccn1	i
22	CN(C)c1ccc(/C=C/C(=O)c2cccc(Br)c2)cc1	i
23	CCOC(=O)COn1c(=O)c(=O)n(O)c2ccccc21	i
24	O=C(NC12CC3CC(CC(C3)C1)C2)c1ccc(S(=O)(=O)N2CCOCC2)cc1	0.4
25	NC(=O)C1CCN(C(=O)CN(c2cccc(C(F)(F)F)c2)S(=O)(=O)c2ccccc2)CC1	0.1
26	NC(=O)c1ccc(N2CCCCC2)c(N2C(=O)C3CC=CCC3C2=O)c1 (stereo unspecified)	0.1
27	OC1(c2ccccc2F)CC2CCC(C1)N2CCN1CCOCC1 (stereo unspecified)	0.8
28	CC(C)C[C@H](NC(=O)OC(C)(C)C)C(=O)N/N=C/C1=Cc2ccccc2OC1C (stereo partly specified)	i
29	CS(=O)(=O)c1cccc(C(=O)NCc2ccccc2)c1	0.7
30	CCc1ccc(-c2csc3[n+]2CCN3C(C)=O)cc1	i
31	COc1ccc(F)cc1S(=O)(=O)N1CCCC(C)C1 (stereo unspecified)	0.8
32	COc1cc(NC(=O)c2noc3c2CCC3)c(OC)cc1Cl	0.5
33	O=c1[nH]c(CSc2nnc(COc3ccccc3)n2-c2ccccc2)nc2ccccc12	0.8
34	Cc1cccc(-n2c(SCc3cc(=O)n4ccsc4n3)nc3ccccc32)c1	1.6
35	Cc1c(C(=O)NCC2COc3ccccc3O2)oc2ccc(S(=O)(=O)N3CCOCC3)cc12 (stereo unspecified)	0.1
36	COc1ccc(C(=O)Nc2cccc(-c3nnc(-c4ccco4)o3)c2)cc1	0.7
37	Cc1nc2cc(-c3cccc(F)c3)nn2c(C)c1CCC(=O)NC(C)CCc1ccco1 (stereo unspecified)	i
38	Nc1ccc2c(c1)-c1ccccc1S(=O)(=O)N2	i
39	CCCc1cc(C(=O)OC)c(NC(=O)OCC)s1	i
40	Cc1cc2oc(=O)cc(COC(=O)Cn3cnnn3)c2cc1C(C)C	1.1
41	CCS(=O)(=O)N1CCN(C2CCC(c3ccccc3)CC2)CC1 (stereo unspecified)	1.7
42	COc1cc(C)c(-c2cc(C(=O)O)c(C)o2)cc1C(C)C	i
43	O=C(CSCc1ccco1)Nc1cc(C(F)(F)F)ccc1N1CCOCC1	3.0
44	CC(C)(C)C(=O)Nc1ccc(C(=O)N/N=C/c2ccccc2OC(=O)c2ccc(Cl)cc2Cl)cc1	i
45	CCOC(=O)Cn1c(-c2cccnc2Cl)nc2cc(Cl)c(Cl)cc21	i
46	CN1C(=O)OC2(C)CCc3ccccc3C12C (stereo unspecified)	0.9
47	CCOC(=O)c1csc(Nc2nc3ccc(F)cc3s2)n1	i
48	COCCNC(=O)c1ccc(CS(=O)(=O)c2ccc(OC)cc2)o1	i

In another format: results already given
45: CCOC(=O)Cn1c(-c2cccnc2Cl)nc2cc(Cl)c(Cl)cc21
  H5N1 antiviral = i
46: CN1C(=O)OC2(C)CCc3ccccc3C12C (stereo unspecified)
  H5N1 antiviral = 0.9
47: CCOC(=O)c1csc(Nc2nc3ccc(F)cc3s2)n1
  H5N1 antiviral = i
48: COCCNC(=O)c1ccc(CS(=O)(=O)c2ccc(OC)cc2)o1
  H5N1 antiviral = i

Values by screen from above.
Entries 41–48 in H5N1 antiviral: 1.7, i, 3.0, i, i, 0.9, i, i

Continued:
cpd	SMILES	H5N1 antiviral
49	Cc1ccccc1OCC(=O)N(Cc1nc(-c2ccccc2)no1)C(C)C	i
50	O=C1NCN(c2ccccc2)C12CCN(c1nnnn1-c1ccccc1)CC2	2.9
51	O=C(CN1CCCCC1)N1CCCc2ccccc21	0.8
52	COC(=O)c1ccccc1NC(=O)c1c(O)c2c([nH]c1=O)CCCC2	i
53	N=c1sccn1CC(=O)Nc1cccc(Oc2ccccc2)c1	i
54	CCc1cc(C(=O)c2ccccc2OC)c(N)s1	i
55	O=C(C1c2ccccc2C(=O)N2CCc3ccccc3C12)N1CCN(Cc2ccccc2)CC1 (stereo unspecified)	1.2
56	COc1ccc(NC(=O)CCC(=O)OCc2ccc(C(=O)Oc3ccc(Cl)cc3)cc2)cc1	i
57	Cc1nc(=O)c(-c2ccccc2)c(C)n1CCO	i
58	O=C(OCC(=O)c1cccs1)c1ccccc1	i
59	CCOC(=O)C1Cn2c(nc3c(c2=O)C(C)(CC)Cc2ccccc2-3)S1 (stereo unspecified)	i
60	O=C(CCl)Nc1ccccc1Sc1ccccc1	i
61	CCOC(=O)N1CCN(C(=O)CN(c2ccc(Oc3ccccc3)cc2)S(C)(=O)=O)CC1	i
62	O=C(CNC(=O)/C(=C\c1ccc(F)cc1)NC(=O)c1ccccc1)OCc1ccccc1	0.1
63	COc1ccc(CCNC(=O)CSc2nnc(CNc3ccc(Cl)cc3)o2)cc1OC	0.1
64	CC1(C)Oc2ccc(NC(=O)C3COc4ccccc4O3)cc2O1 (stereo unspecified)	1.3
65	O=C(C1CCCO1)N1CCN(C(c2ccccc2)c2ccccc2)CC1 (stereo unspecified)	0.2
66	COc1ccc(-c2nnc3c4ccccc4c(C)nn23)cc1	2.2
67	Cn1nc(-c2ccccc2)c(-c2nc(-c3cccc(C(F)(F)F)c3)no2)c1Cl	i
68	O=C(N/N=C/c1ccco1)c1ccncc1	0.5
69	Cc1cnc(C(=O)Nc2nnc(C3CC3)s2)cn1	i
70	O=C1c2ccc(Oc3ccc4c(c3)C(=O)N(CCCO)C4=O)cc2C(=O)N1CCCO	i
71	COc1ccc(C(c2sc3nc(C)nn3c2O)N2CCC(C(N)=O)CC2)cc1OC (stereo unspecified)	1.5
72	Cn1nc(C(F)(F)F)c(C(=O)Nc2cccc(C(F)(F)F)c2)c1SCc1ccc(Cl)cc1	1.3
73	COc1ccc(Cl)cc1N1C(=O)C2CCCN2C1c1ccc(F)c(F)c1 (stereo unspecified)	i
74	O=C(NCC1COc2ccccc2O1)c1ccc(NC(=O)c2ccco2)cc1 (stereo unspecified)	i
75	Cc1ccc(CC(NC(=O)c2ccccc2)C(=O)NC(C)C(=O)O)cc1 (stereo unspecified)	i
76	CCCCCCOc1cccc(N)c1	i
77	Cc1ccc(F)c(NC(=O)CCc2ccccc2)c1	0.5
78	Clc1ccccc1CN1CCN(c2ccccc2Cl)CC1	i
79	CCOC(=O)C1(C(F)(F)F)N=C(C(F)(F)F)Nc2ccccc21 (stereo unspecified)	i
80	CCOc1ccccc1N1CCN(Cc2cccc(OC)c2OC)CC1	i
81	COC(=O)c1cn(N(C)c2ncc(C(F)(F)F)cc2Cl)c(=O)c2ccccc12	1.3
82	CCCN(CCC)c1ncnc2nc[nH]c12	i
83	CCOC(=O)Cc1nn(CCc2ccccn2)c(=O)c2ccccc12	1.0
84	O=C(c1c(O)c2ccccc2oc1=O)C1CCCCC1	0.1
85	COC(=O)CN1C(=O)C2(C(C(=O)OC)=C(N)Oc3ccccc32)C2=C1CC(C)(C)CC2=O (stereo unspecified)	i
86	COc1cc(-c2cc(C(=O)N3CCN(c4ccccn4)CC3)c3ccccc3n2)cc(OC)c1OC	i
87	CCC(Sc1n[nH]c(=O)[nH]c1=O)C(=O)OCc1ccccc1 (stereo unspecified)	i
88	CCOC(=O)c1cc(OC(=O)c2ccccc2Br)n(-c2ccccc2)n1	i
89	CCOC(=O)c1cc2sccc2n1CC(=O)N1CCCC1	i
90	O=C(N1CCCCC1)N1CCN(C(c2ccccc2)c2ccccc2)CC1	0.0
91	CCOC(=O)c1cnc(SC)nc1N	8.8
92	N#Cc1nc(COc2ccc(F)cc2)oc1NCCCn1ccnc1	i
93	O=C(CO)N/N=C/c1ccc(Cl)cc1	1.9
94	CCOC(=O)c1nnn(-c2nonc2N)c1CN(C)Cc1ccccc1	1.0
95	O=C(Nc1ccc(N2CCOCC2)c(Cl)c1)c1ccc(Br)o1	i
96	COc1ccc(-n2c(N)c(C(=O)NCc3ccco3)c3nc4ccccc4nc32)c(OC)c1	1.5
97	CCCCc1nc2ccccc2c(=O)n1-c1ccc(O)cc1	14.0
98	CC(CNCC1CCCO1)COc1cccc2ccccc12 (stereo unspecified)	i
99	O=C1CC(c2ccccc2)n2nc(N3C(=O)c4ccccc4C3=O)nc2N1 (stereo unspecified)	1.3
100	CN(CC(=O)NC1CCCCCC1)S(=O)(=O)c1ccccc1	0.9
101	CN(C)c1ccc(/C=C/C=C2/SC(=S)N(c3ccccc3)C2=O)cc1	i
102	COCCCN1C(=O)C(=O)/C(=C(/O)c2ccc(OC(C)C)cc2)C1c1ccc(O)c(OC)c1 (stereo unspecified)	0.7
103	CCCc1nc2sc3ccccc3c(=O)c2c(=O)n1Cc1ccco1	2.1
104	COc1ccccc1N1CCN(CC(O)COc2c(OC)cccc2OC)CC1 (stereo unspecified)	i

Later entries:
cpd	SMILES	H5N1 antiviral
105	CC(C)Cn1c(CCC(=O)O)ccc1-c1cccs1	i
106	CC(=O)c1ccc(S(=O)(=O)NCCCC(=O)NCCc2ccccn2)cc1	0.2
107	CC(=O)Nc1nc(N)n(-c2ccccc2)n1	i
108	O=C(NNC1=C(C(=O)C(F)(F)F)CCC1)c1ccccc1O	7.6
109	COc1ccccc1-c1cc(C(=O)Nc2c(C)n(C)n(-c3ccccc3)c2=O)no1	i
110	CCCc1cc(C(=O)Nc2cccc(Cl)c2)no1	i
111	CCNC(=O)c1c(NC(=O)C2COc3ccccc3O2)sc2c1CCCC2 (stereo unspecified)	1.3
112	COc1ccc(NC(=O)CSc2nnc(Cc3cccn3C)n2CCc2ccccc2)cc1OC	i
113	COC(=O)C1CCN(S(=O)(=O)c2ccc(OC)cc2)CC1	0.6
114	COc1ccc(N(C)S(=O)(=O)c2ccc3c(c2)oc(=O)n3C)cc1	0.8
115	CCOC(=O)C1CCN(C(c2cc3ccc(C)cc3[nH]c2=O)c2nnnn2C2CCCCC2)CC1 (stereo unspecified)	i
116	CCCC1=C(C(=O)OCC)C(c2ccccc2OCC)NC(=O)N1C (stereo unspecified)	0.3
117	O=C(Oc1ccccc1C(=O)Oc1ccccc1)c1ccco1	0.7
118	O=C1CC(N2CCC(n3c(=O)[nH]c4ccccc43)CC2)C(=O)N1Cc1ccccc1 (stereo unspecified)	i
119	COCCOC(=O)C1=C(C)N(Cc2ccccc2)C(=O)NC1c1ccc(OC)cc1 (stereo unspecified)	i
120	CC1=C(C(=O)N2CCc3ccccc32)C2(CCC(C)CC2)OC1=O (stereo unspecified)	0.3

Four structures out of the list, arranged by SMILES length, largest number first:
cpd	SMILES	H5N1 antiviral
119	COCCOC(=O)C1=C(C)N(Cc2ccccc2)C(=O)NC1c1ccc(OC)cc1 (stereo unspecified)	i
114	COc1ccc(N(C)S(=O)(=O)c2ccc3c(c2)oc(=O)n3C)cc1	0.8
116	CCCC1=C(C(=O)OCC)C(c2ccccc2OCC)NC(=O)N1C (stereo unspecified)	0.3
113	COC(=O)C1CCN(S(=O)(=O)c2ccc(OC)cc2)CC1	0.6

The list goes on.
cpd	SMILES	H5N1 antiviral
121	Cc1ccc2c(Cl)cc(Cl)c(OCc3c(C)noc3C)c2n1	i
122	O=C(CCCn1c(=O)[nH]c2cc(Cl)ccc2c1=O)NCCN1CCN(c2ccccc2)CC1	0.1
123	CCc1nnc(NC(=O)NCN2C(=O)C3C4C=CC(C4)C3C2=O)s1 (stereo unspecified)	3.4
124	C=CCOC(=O)/C(=C\c1ccc(OC)cc1)NC(=O)c1ccco1	0.2
125	CC1CN(CCC(=O)Nc2ccc3c(c2)OCO3)CC(C)O1 (stereo unspecified)	1.5
126	O=C(NCc1ccc(Cl)cc1)c1ccc(Cl)cc1[N+](=O)[O-]	i
127	COc1ccc(C2NC(=O)NC(O)(C(F)(F)F)C2C(=O)c2ccc(F)cc2)cc1 (stereo unspecified)	0.7
128	O=C(NC1CCCC1)c1noc2c1CCCCC2	0.5
129	CS(=O)(=O)N1CCN(C(=O)c2c(F)cccc2F)CC1	i
130	Cc1ccc(NC2=NCC(=O)N2Cc2ccc3c(c2)OCO3)cc1	i
131	CC(=O)Nc1ccc(S(=O)(=O)N2CCN(c3nc(NC4CCCC4)c4ccccc4n3)CC2)cc1	i
132	Clc1ccc(-c2csc(NNC3=NCCCCC3)n2)cc1	1.4
133	Fc1ccc(CCNCc2cccc(Cl)c2)cc1	i
134	CCCCCCCOC(=O)C1=C(C)Nc2ncnn2C1c1cccs1 (stereo unspecified)	1.9

Bioassay records (PubChem BioAssay)
